KSHV LANA nucl = inhibitors of KSHV LANA binding to nucleosomes | hit rate 0.3% among 51,000 | FITC-LANA1-23 / chicken nucleosome fluorescence polarization; stronger effect = lower value | z-score (no concentration beside the values);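 active = both repeat wells score below -2 in polarization z-score versus plate sample wells, excluding overly bright wells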;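 also: 100 nL library stock added to about 30 µL; numbers are from one replicate; some results filed as inactive read as strong as hits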
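Test system: purified chicken nucleosomes with FITC-labelled LANA N-terminal peptide (1-23); Input: 240 nM purified chicken nucleosomes (480 nM peptide binding sites), final; Medium: TEN-BT buffer, pH 7.5; Timing: 10–45 min, room temperature; Technique: fluorescence polarization, 480 nm excitation, 535 nm parallel and perpendicular emission; Replication: duplicates.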
Ab BasE inh = BasE siderophore biosynthesis inhibition | purified BasE, fluorescence polarization binding displacement | inhibition, % (concentration not given with the values) | AID 485350 | hit rate 0.1% among 84,000;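 active = both replicates above 25% with normal brightness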;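 also: 0% = negative plate control signal and 100% = positive plate control signal; stock transfer was 100 nL into about 30 µL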
* marks the source's active call; other numbers are inactive results; · = not tested or not shown.

Order of values: KSHV LANA nucl	Ab BasE inh
O=S(=O)(N=Nc1c(O)n(CO)c2ccccc12)c1ccc(Br)cc1
    ·	-2.5
CC(=O)NC1=NN(C(C)=O)C2(S1)C(=O)Nc1ccccc12 (configuration not stated)
    0.47	-0.4
CC(C)Oc1cccc(-c2nc(-c3ccccn3)no2)c1
    -1.4	-3.1
N#Cc1c(Cl)cccc1I
    0.29	1.0
COC(=O)c1sc(N)c(C(=O)OC)c1CSc1nc2sc3c(c2c(=O)n1C)CCC3
    ·	1.2
O=C(O)c1cc2ccccc2c(=O)[nH]1
    1	-1.4
N#Cc1cccc(C(=O)OCC(=O)NC2CC2)c1
    ·	-0.3
CCCn1c(SCC(=O)NC(C)(C#N)C(C)C)n[nH]c1=O (configuration not stated)
    ·	0.4
COc1cccc(COC(=O)c2nc3nc(C)cc(C)n3n2)c1
    ·	-2.7
CSc1ncccc1C(=O)Nc1ccc2c(C)cc(=O)oc2c1
    ·	2.7
OC(COCc1ccccc1)Cn1c2ccccc2c2ccccc21 (configuration not stated)
    ·	0.8
Cc1cc(Cl)nc(SCC(=O)c2ccccc2)n1
    0.27	-2.2
Cc1sc2ncn3c(=O)c4ccccc4nc3c2c1C
    ·	1.3
O=C(c1cccc(S(=O)(=O)N2CCOCC2)c1)N1CCSC1=NCc1ccccc1
    ·	-5.6
Cc1ccc(NC(=O)C2CC2C)c(Cl)c1 (configuration not stated)
    ·	2.2
COc1cccc(NC(=O)c2cccc3c2SCCC3=O)c1
    -0.2	-4.1
O=S1(=O)CC2N=C(N/N=C/c3ccccc3)SC2C1 (configuration not stated)
    ·	1.1
CN=C(NC#N)NCCSCC1N=CN=C1C (configuration not stated)
    -0.97	-1.8
CC(C)N1CCC(NS(=O)(=O)c2c(F)cc(F)cc2Br)CC1
    ·	11
c1ccc(C2CC3CCCCC3CO2)cc1 (configuration not stated)
    ·	4.4

Overlap with the part before: three entries, then new ones.
Order of values: KSHV LANA nucl	Ab BasE inh
CN=C(NC#N)NCCSCC1N=CN=C1C (configuration not stated)
    -0.97	-1.8
CC(C)N1CCC(NS(=O)(=O)c2c(F)cc(F)cc2Br)CC1
    ·	11
c1ccc(C2CC3CCCCC3CO2)cc1 (configuration not stated)
    ·	4.4
CC(Oc1ccc(/C=c2/sc3nc4ccccc4n3c2=O)cc1)C(=O)O (configuration not stated)
    -0.61	0.8
CC(C)N(C(=O)CSc1ccc(-c2ccc3c(c2)OCCO3)nn1)C(C)C
    0.14	-2.0
CCOc1ccc(-n2cc(C(=O)N3CCN(c4ccccc4OC)CC3)c3cc(OC)c(OC)cc3c2=O)cc1
    -1.4	0.3
COC(=O)CSc1nc2sc3c(c2c(=O)n1-c1ccccc1)CCC3
    ·	-2.6
CC(C)n1c(-c2cccc(Br)c2)nc2ccccc21
    0.085	-1.1
O=c1sn(-c2ccccc2C(F)(F)F)c(=O)n1CC1CC1
    ·	1.1
O=C1NC(=O)c2cc(Cl)c(Cl)cc21
    ·	3.7
O=C(COc1ccc2c(c1)OCO2)Nc1ccccc1C(F)(F)F
    0.16	0.8
Cc1cc(C)c(C(=O)COC(=O)c2cccc(OCc3c(C)noc3C)c2)cc1C
    ·	-0.8
CC1=NN(c2ccccc2)C(=O)/C1=C\c1ccc[nH]1
    -0.98	2.0
CCc1ccc(/C(C)=N/N=C(N)N)cc1
    -0.53	-0.7
COc1ccc2c(Cl)c(C(=O)NN)sc2c1
    ·	-0.4
O=C1N(C2CCCCC2)C(=NC2CCCCC2)SC12CC2
    ·	5.3
CC(=O)N1CCn2c3c(c(=O)c4cc(C)ccc42)CCC31 (configuration not stated)
    -0.62	0.1
Cc1cc(C(=O)Cn2c(=O)/c(=C\c3ccsc3)s/c2=C\C(=O)C(C)(C)C)c(C)n1C
    ·	2.2
Cn1nc(C(=O)O)c2ccccc2c1=O
    ·	-0.5
CC(C)(C)N1NC2(CCCCC2)NC1=O
    -1.5	1.2
COc1ccc2nc(Nc3nnc(-c4cccs4)o3)sc2c1
    0.053	0.2
O=C(CCc1nc2ccccc2c(=O)[nH]1)NCc1ccccn1
    ·	11
CCCn1c(=S)[nH]c2ccccc2c1=O
    ·	1.8

In a second layout: entries from further up
SMILES,KSHV LANA nucl,Ab BasE inh
CCCn1c(=S)[nH]c2ccccc2c1=O,·,1.8
O=C(O)c1cc2ccccc2c(=O)[nH]1,1,-1.4
Cc1sc2ncn3c(=O)c4ccccc4nc3c2c1C,·,1.3
COC(=O)CSc1nc2sc3c(c2c(=O)n1-c1ccccc1)CCC3,·,-2.6

The list goes on.
Order of values: KSHV LANA nucl	Ab BasE inh
CC(=O)N1CCN(Cc2cc(=O)oc3cc(C)ccc23)CC1
    0.29	0.6
COc1ccccc1NS(=O)(=O)c1cccc(C(=O)N/N=C/c2c(CO)cnc(C)c2O)c1
    ·	-1.0
O=C1Nc2ccccc2N(O)N1c1ccc(S(=O)(=O)N2CCCCCC2)cc1
    -0.81	2.2
COc1ccc(CCNC(=O)c2cc3ccccc3c(=O)o2)cc1OC
    ·	1.2
COc1ccc(-c2nnc(SCC3CNC(=O)O3)n2C)cc1 (configuration not stated)
    ·	2.0
CCN(C(=O)c1cccs1)C1CCS(=O)(=O)C1 (configuration not stated)
    -1.2	3.0
O=C(CCc1nc2ccccc2c(=O)[nH]1)Nc1ccc2c(c1)CCC2
    ·	28*
CCC(C)(C)n1nnnc1C(C(C)C)N(Cc1cccnc1)Cc1ccco1 (configuration not stated)
    -0.21	-1.8
Cc1ccc(C(=O)N/C(=C\c2cccnc2)C(=O)N2CC3CC(C2)c2cccc(=O)n2C3)cc1 (configuration not stated)
    -1	-0.9
CCC(=O)N(Cc1cc(=O)[nH]c2ccccc12)C1CCCCC1
    0.064	1.2
Cc1ccc(-c2nnc(N(CC(C)C)C(=O)c3ccco3)s2)cc1
    -0.064	1.0
COc1ccc(C2=NOC(C(=O)NCCc3ccccc3)C2)cc1 (configuration not stated)
    -1.7	-0.8
O=C(NCc1ccco1)C1c2ccccc2Oc2ccccc21
    1.4	-4.0
O=S(=O)(c1ccc(Br)cc1)N1CCOCC1
    -0.049	1.2
Cc1cccnc1NC(=O)c1ccccc1C(=O)O
    -0.23	-0.2
CCCc1ccc(OCCNC(C)=O)c(OC)c1
    0.019	1.7
O=C(CN1CCN(C2CCCCC2)CC1)N(c1ccccc1)c1ccc(O)cc1
    -0.35	-0.4
N#CCCN/N=C/c1ccc(-c2ccc(SC(F)F)cc2)o1
    ·	0.4
CCCN1CC=C2C(C#N)=C(N)C(C#N)(C#N)C3(C(=O)Nc4ccccc43)C2C1 (configuration not stated)
    ·	18
Cc1c(N/C=C/C(=O)C(F)(F)F)c(=O)n(-c2ccccc2)n1C
    ·	2.6
CCN1CCN(C(c2cccnc2)c2c(NC(C)=O)sc3c2CCCC3)CC1 (configuration not stated)
    2.2	0.1
CC(=O)N1c2ccccc2N(C)C(=O)C1(C)C
    -0.23	1.2
NC(=S)c1cnc(-c2ccncc2)nc1N
    ·	3.2
CCOc1ccc(-c2cc(NC(=O)CCSCCc3ccccn3)on2)cc1OCC
    1.1	-2.3
Cc1cc(C)c2cc(C(=O)N3CCC(Cc4ccccc4)CC3)[nH]c2c1
    ·	0.8
C=CCn1c(SCC(=O)c2cccs2)nc2sc(C)cc2c1=O
    -0.35	0.1
S=C(NCC(c1ccco1)N1CCCC1)Nc1ccccc1 (configuration not stated)
    ·	-2.2
Cc1cc(=O)oc2c3c(ccc12)OCN(c1ccccc1)C3
    -0.23	-1.3
CC(=O)NC12CC3CC(C1)CC(C(=O)Nc1ccc(N4CCCCC4)cc1)(C3)C2
    ·	-1.0
Cc1ccc(S(=O)(=O)NCCCO)cc1C(=O)O
    -0.82	1.6
O=C(NC1CCCCCC1)C1Cc2ccccc2CN1C(=O)c1ccco1 (configuration not stated)
    ·	-5.3
CC1CCN(Cc2ccc(NC(=O)c3ccc4c(=O)n5c(nc4c3)CCCCC5)cc2)CC1
    -0.17	-5.1
N#Cc1c(NC(NC(=O)c2ccccc2)C(=O)c2cccs2)sc2c1CCCC2 (configuration not stated)
    ·	1.3
O=C(c1cccc(N2C(=O)C3CC=CCC3C2=O)c1)N1CCCc2ccccc21 (configuration not stated)
    -1.1	0.1
Cc1n[nH]c(=O)c2noc(/C=C/c3ccc(Cl)c(Cl)c3)c12
    0.071	3.9
N#CC1=C2SCN(CCCc3ccccc3)CN2C(=O)CC1c1ccc(Cl)cc1 (configuration not stated)
    0.3	-0.1
FC(F)(F)c1nnc2ccc(N3CCCCC3)nn12
    0.4	0.5
O=C(CO/N=C/c1ccccc1OC(F)F)N1CCc2ccccc21
    ·	-2.8
C=CCN(CC=C)S(=O)(=O)c1ccc(C)cc1
    -0.63	1.6
O=C1c2ccccc2C(=O)c2c1oc1c3c(ccc21)OCN(Cc1ccccc1)C3
    ·	0.9
Cc1noc(C)c1COc1ccc(CC(=O)NCc2ccccc2)cc1
    ·	-0.4
O=C(CN1CCN(Cc2ccccc2)CC1)NC1CC1
    0.54	1.1
CSc1ccc(-c2nc3ccccc3c(=O)[nH]2)cc1
    -0.64	2.3
C/C(=C\C=C\c1ccccc1)C(=O)c1c(C)cc(C)[nH]c1=O
    ·	0.5
CC(=O)Nc1ccccc1OCCN(Cc1ccccc1)C(=O)c1ccc(Cl)cc1
    ·	19
COc1cccc2c(C)nc(NC3=NCN(CC4CCCO4)CN3)nc12 (configuration not stated)
    -1.7	0.7
CCNc1nc(N)nc(Oc2ccc(OCC)nn2)n1
    -0.26	5.4
Nc1scc[n+]1CC(=O)[O-]
    -0.47	2.5
Cc1occc1-c1nnc(SCC(=O)NC(=O)NCc2ccccc2)n1Cc1ccccc1
    ·	0.1
COc1cccc(-n2cc[nH]c(=O)c2=O)c1
    0.99	0.0
CCc1cc(C(=O)Cc2cnn(-c3ccccc3)c2)c(O)cc1OC
    ·	-2.7
C=CCC1S/C(=N/N=C/c2ccccc2)NC1=O (configuration not stated)
    -0.14	-1.0
CC(C)NC(=O)COc1coc(CN2CCN(C(=O)c3ccco3)CC2)cc1=O
    -0.26	1.4
OC1C2CN3CCN(C2)CC1(Cc1ccccc1)C3 (configuration not stated)
    -1.3	0.5
CC(Oc1ccccc1F)c1nnc(SCC(=O)c2ccc[nH]2)o1 (configuration not stated)
    ·	1.7
CCOC(=O)c1cnc(S/C=C/C(=O)c2ccc(Cl)cc2)nc1N
    ·	-0.3
COc1cc2c(cc1NC(C)C(=O)N1CCCC1)oc1ccccc12 (configuration not stated)
    ·	0.4
O=C(COC(=O)Cn1cnc2ccccc21)NC1CCCCCC1
    ·	1.8
COc1ccc(C(=O)N2CCCN(C)CC2)cc1S(=O)(=O)N(C)Cc1ccccc1
    ·	-0.2
O=C1OC(c2ccccc2)=C/C1=C/c1ccco1
    1.6	-2.3

More results.
Order of values: KSHV LANA nucl	Ab BasE inh
COc1cc(Br)cc(C=Nc2cccc(-c3nc4ccccc4o3)c2)c1O
    ·	2.0
COc1ccccc1NC(=O)Cc1noc(COC(=O)c2cc(OC)c(OC)cc2OC)n1
    ·	-0.1
COc1cc(/C=C2\C(=N)N3N=C(S(C)(=O)=O)SC3=NC2=O)ccc1OC(=O)c1ccco1
    -0.22	2.2
CCCn1c(SCC(=O)N2CCc3ccccc32)nc(O)cc1=O
    ·	3.2
CCn1c(=O)c(=O)[nH]c2cc(C(=O)Nc3ccc4c(c3)CCC4)ccc21
    ·	1.1
OCC12C3CC4C5C3C1C5C(F)(F)C42 (configuration not stated)
    ·	0.9
COc1ccccc1COc1ccc2c3c(c(=O)oc2c1C)CCCCC3
    ·	-3.7
Cc1nc(N)sc1-c1nnc(SC/C=C/c2ccccc2)n1C
    -0.71	1.9
CCOC(=O)c1c(C)[nH]c(C)c1C(=O)CSC(=S)N(C)C
    ·	-0.9
COc1ccc(/C=N/N=C/c2ccc(OC)c(O)c2)cc1O
    -0.4	5.3
Cc1ccc(OCCn2cc(C=C(C#N)C#N)c3ccccc32)cc1
    -0.21	-3.2
CCOC(=O)Cc1nc2ccccc2o1
    ·	-10
C1CCCC(NCCCN2CCOCC2)CC1
    -1.1	-0.3
CC1=C(C(=O)Nc2ccccc2)S(=O)CCO1 (configuration not stated)
    0.38	·
Cc1ccc(C)c(Cn2c(C(=O)OC(C)C)cc3c2ccn3C)c1
    -0.9	0.4
Cc1cc(C)cc(C(=O)NCC(c2ccc(N(C)C)cc2)N2CCOCC2)c1 (configuration not stated)
    -0.36	-0.4
O=C1S/C(=C\c2ccc(N3CCOCC3)o2)C(=O)N1Cc1ccc(F)cc1
    1	1.3
COc1cccc(OC)c1C(=O)Nc1cc(Cl)ccc1N1CCOCC1
    -0.021	-4.7
COc1cc(/C=N/N=C/c2c[nH]c(=O)c(C#N)c2Nc2ccccc2)ccc1O
    -0.32	3.2
O=C(O)CSc1nnc2c3ccccc3n(Cc3ccccc3)c2n1
    -0.85	2.3
Cc1noc(C)c1S(=O)(=O)N1CCCC1
    0.33	-1.2
Cc1cc(=O)oc2cc(OCC(=O)N(C)C)c(Cl)cc12
    0.16	0.2

Screening results from PubChem BioAssay.

Some of the compounds tested, so the mix of outcomes need not match the whole.
